# Rango-impB inh: prevents formation of the Rango-importin beta complex; AID 540263; 0.031% of 340,000 active; Rango CFP/YFP FRET sensor + importin beta, 45 min; Potency, µM (doses to about 92.2 µM), inactives show at the highest dose inhibition of complex formation; Q14974; active = rising FRET ratio curve, often small or poorly fitted; inconclusive = mostly compound fluorescence or quenching in the first reads; inactive = flat curves in all reads;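 also: potency is read from the fitted curve at half-maximal effect; 0% = DMSO wells and 100% = buffer wells lacking importin beta; nearly all actives have a fitted effect of over 15% in size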
# Target sequence (Q14974 whole entry, looked up): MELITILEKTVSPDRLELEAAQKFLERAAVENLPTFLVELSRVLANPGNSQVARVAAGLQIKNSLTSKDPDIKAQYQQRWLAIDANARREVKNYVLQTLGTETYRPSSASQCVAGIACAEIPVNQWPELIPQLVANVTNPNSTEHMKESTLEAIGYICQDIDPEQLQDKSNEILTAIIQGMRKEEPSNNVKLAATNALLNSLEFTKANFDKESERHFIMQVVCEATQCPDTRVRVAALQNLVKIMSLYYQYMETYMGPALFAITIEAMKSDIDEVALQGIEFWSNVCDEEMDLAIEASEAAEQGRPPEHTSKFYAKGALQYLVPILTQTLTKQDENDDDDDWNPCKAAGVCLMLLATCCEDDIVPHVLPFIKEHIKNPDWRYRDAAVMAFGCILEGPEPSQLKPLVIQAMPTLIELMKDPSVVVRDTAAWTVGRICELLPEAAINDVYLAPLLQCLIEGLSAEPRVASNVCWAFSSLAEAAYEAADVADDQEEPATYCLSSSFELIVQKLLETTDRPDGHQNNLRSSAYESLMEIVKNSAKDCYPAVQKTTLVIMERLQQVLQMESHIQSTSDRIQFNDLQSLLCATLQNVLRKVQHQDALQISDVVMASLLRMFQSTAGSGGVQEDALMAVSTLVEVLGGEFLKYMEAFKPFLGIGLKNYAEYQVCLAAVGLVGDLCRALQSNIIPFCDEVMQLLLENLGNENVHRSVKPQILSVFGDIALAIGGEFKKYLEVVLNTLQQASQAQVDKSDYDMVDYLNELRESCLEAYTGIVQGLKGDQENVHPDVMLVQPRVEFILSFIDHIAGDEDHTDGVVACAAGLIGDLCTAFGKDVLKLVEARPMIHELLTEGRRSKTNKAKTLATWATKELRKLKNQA
#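 FRET biosensor (snurportin 1 IBB flanked by EYFP and cerulean), 50 nM, with compound 5 min, then 0.125 microM importin beta in PBS, 1 mM DTT, 0.02% Tween-20, 0.1% BSA. CFP/YFP ratio read after 45 min at room temperature; pre-read flags interference.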
# GLA inh pH 4.5: inhibitors of human alpha-galactosidase A at pH 4.5; purified enzyme, 4-MU-alpha-Gal fluorescence, pH 4.5; activity change, negative = inhibition, % at 105 µM; P06280; 230,000 tested, under 10 active; inconclusive = small, poorly fitted or top-dose-only inhibition, or a rising curve; inactive = flat fitted curve, though single readings scatter; no compound was filed as active;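 also: 0% = full activity with enzyme and -100% = basal without enzyme; dose as in the result columns while the protocol names 77 µM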
# Rango release inh: inhibitors of RanGTP-induced Rango-importin beta complex dissociation. Biochemical FRET Rango-importin beta, RanGTP-induced dissociation. AID 540253. 0.071% of 340,000 active. Potency, µM (titrated, usually from 46.1 µM), inactives show at the highest dose activity change, negative = inhibition. O95149+P62826; active means falling FRET ratio curve, often poorly fitted, with flat reads before Ran was added; inconclusive means other falling curves, or compound fluorescence or quenching; inactive means flat or rising ratio curve;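 also: potency is read from the fitted curve at half-maximal effect; % of control where 0% means no effect; nearly all actives have a fitted effect of over 45% in size; -100% = wells without RanGTP and RCC1; the record marks most hits as doubtful in a second field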
#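 Quantitative HTS using a FRET biosensor: 0.1 uM Rango, 0.25 uM importin beta, 0.6 uM Ran, 2 mM GTP, 0.2 uM RCC1 final, PBS with DTT, Tween-20 and BSA. Post-read taken 45 min after Ran addition.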
# miR-21 FLuc: miR-21 reporter, rising signal; Potency, µM (series often up to 38.3 µM), without a hit: top-dose reporter change, positive = more light; HeLa miR-21 FLuc reporter, luciferase, 48 h; 340,000 tested, under 10 active; AID 2288; active = well fitted rising curve with a large enough effect; inconclusive = small, poorly fitted or top-dose-only effect; inactive = no such curve, though single readings can be large or run the other way;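 also: % of control where 0% means no effect; miR-21 action dims this reporter so a rising signal means less miR-21 action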
#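 Luminescence from a firefly luciferase reporter carrying a miR-21 binding site downstream, stably expressed under a CMV promoter in HeLa cells that make miR-21 endogenously, reports miRNA modulation after 48 h compound exposure up to approximately 40uM final.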
# Starred values were filed as active, the others as inactive; ? = inconclusive; / = not tested or not shown; & = joins results of further samples. Some of the compounds tested; rates above refer to the full screens.
1: O=C(COCCOCC(=O)N(c1ccccn1)C1CCCCC1)N(c1ccccn1)C1CCCCC1
2: O=C(Nc1nnc(CCS(=O)(=O)c2ccc(Br)cc2)s1)c1ccc([N+](=O)[O-])cc1
3: Clc1ccc(Cc2nn3c(Cn4nnc5ccccc54)nnc3s2)cc1
4: COCc1cc(C)nc(N/N=C/c2ccc(-c3cc(C(=O)O)ccc3Cl)o2)c1C#N
5: O=C(NCCO)c1cc(-c2cc(C(=O)NCCO)c3ccccc3n2)nc2ccccc12
6: CC(C)[C@H](NC(=O)c1ccccc1)C(=O)OCC(=O)/C=C1/N(C)c2ccccc2C1(C)C
7: COc1cccc(-c2nc(CS(=O)CC(=O)NCc3ccccc3Cl)c(C)o2)c1 (configuration not stated)
8: COC(=O)c1[nH]c2ccc(C)cc2c1NC(=O)CN1CCN(c2ccccc2)CC1

Assay by compound	1	2	3	4	5	6	7	8
Rango-impB inh	-3.1%	0.0%	4.6%	/	3.3%	-1.0%	-0.9%	0.1%
GLA inh pH 4.5	0.0	-0.8	1.8	2.8	/	-1.9	-7.0	-9.0
Rango release inh	7.4%	-10.3%	3.4%	/	8.0%	-18.7%	0.3%	-5.1%
miR-21 FLuc	-2.1%	-3.7%	1.8%	0.2%	-1.9%	6.5%	-24.6%	2.8%

9: COc1ccc(Cl)cc1N(CC(=O)Nc1ccccc1C(=O)NCc1ccco1)S(C)(=O)=O
10: COC(=O)CNC(c1ccccc1Cl)c1cc(Br)ccc1NS(=O)(=O)c1ccc(C)cc1 (configuration not stated)
11: Cc1cccc2c(=O)c(-c3ccc4c(c3)OCO4)c(NC(=O)c3ccco3)oc12
12: O=C(CSc1nc2ccc(Nc3nc(N4CCOCC4)nc(N4CCOCC4)n3)cc2s1)N1CCOCC1
13: Cc1cc(C)nc(NC(=NCCc2c[nH]c3ccccc23)NC(=O)Nc2ccccc2)n1
14: NS(=O)(=O)c1cccc(NC(=O)COC(=O)c2ccccc2C(=O)c2ccccc2)c1
15: Cc1c(Cl)cccc1NC(=S)Nn1cnnc1
16: CCCCCc1ccc(-c2ccc(/C=C/C(=O)O)cc2)nc1

Assay by compound	9	10	11	12	13	14	15	16
Rango-impB inh	2.8%	-1.6%	0.4%	-0.6%	0.1%	?	4.3%	-3.6%
GLA inh pH 4.5	-5.4	-1.9	/	-6.4	-1.1	/	2.0	-1.9
Rango release inh	-21.2%	7.5%	-6.2%	5.9%	0.0%	11.7%	23.7%	-6.2%
miR-21 FLuc	0.7%	4.2%	3.9%	-3.9%	26.2%	/	1.3%	-6.3%

17: CC1=C(C(=O)OCCC#N)C(c2cc3c(cc2Br)OCO3)NC(=O)N1 (configuration not stated)
18: COc1ccc(NC(=O)N2CCCC2C(=O)NCc2ccc(F)cc2)cc1 (configuration not stated)
19: CCN(CC(=O)NCc1cccs1)C(=O)c1cccc(S(=O)(=O)N(CC)c2ccccc2)c1
20: CC1CCC2(CC1)SCC(=O)N2c1ccc(F)cc1 (configuration not stated)
21: CCCCc1nc2cc(C(=O)N(C)CCc3cn[nH]c3)ccc2o1
22: COc1cccc(NS(=O)(=O)c2ccc3c(c2)N(C(C)=O)CCO3)c1
23: COc1cc2[nH]c(=S)n(Cc3ccc(C)o3)c(=O)c2cc1OC
24: Cc1ccc(NC(=O)C2C3/C=C\CCCCC32)cc1 (configuration not stated)

Assay by compound	17	18	19	20	21	22	23	24
Rango-impB inh	-1.0%	-1.3%	1.1%	-0.8%	0.4%	3.1%	1.4%	-1.3%
GLA inh pH 4.5	/	3.3	/	-2.2	/	/	-0.2	1.4
Rango release inh	-16.4%	-2.3%	4.4%	-27.6%	-7.9%	-9.6%	-7.5%	-15.9%
miR-21 FLuc	-4.4%	-1.3%	/	-0.1%	-26.7%	5.6%	-4.0%	-39.3%

25: Cc1sc2ncn(/N=C/c3ccco3)c(=O)c2c1C
26: Cc1ccccc1OCCCCCn1ccnc1
27: CCn1cc(C(=O)O)c(=O)c2cc(S(=O)(=O)N3CCCCCC3)ccc21
28: CCOc1ccc(N2CC(C(=O)NC3CCCCCC3)CC2=O)cc1 (configuration not stated)
29: O=C1NC(=S)N/C1=C/c1ccc2c(c1)OCO2
30: CC(=O)N1CCSc2ccc(S(=O)(=O)Nc3ccc(C)cc3)cc21
31: COC(=O)c1cc2sccc2n1Cc1nc(-c2ccc(Cl)cc2)oc1C
32: NC(=O)[C@@H]1CCCNc2c(I)cc([N+](=O)[O-])cc2C(=O)N[C@@H](CCC(=O)O)C(=O)N[C@@H](CO)C(=O)N1

Assay by compound	25	26	27	28	29	30	31	32
Rango-impB inh	1.7%	1.2%	3.5%	5.2%	0.6%	3.8%	0.3%	-5.2%
GLA inh pH 4.5	9.7	-3.1	/	/	/	/	1.6	-2.0
Rango release inh	-4.7%	7.3%	13.1%	0.3%	12.1%	1.6%	0.9%	-5.1%
miR-21 FLuc	-29.5%	0.0%	-1.1%	-0.9%	6.2%	9.8%	-0.8%&-4.1%	-6.3%

33: Cc1nn(-c2ccc(Cl)cc2)c(Cl)c1/C=C(\C#N)C(N)=O
34: C=CCc1c(C)nc(SCC(=C)C)[nH]c1=O
35: O=C(O)/C=C/c1ccc(S(=O)(=O)Nc2ccc3[nH]c(=O)[nH]c3c2)cc1
36: CCC1=NN2C(=N)/C(=C\c3ccc(OCCOc4ccccc4OC)cc3)C(=O)N=C2S1
37: COCCNC(=O)CN1CCC(n2c(C)nc3cc(C(F)(F)F)ccc32)CC1
38: CN(C)S(=O)(=O)n1cnc([C@H]2c3c(ncn3Cc3ccccc3)C[C@H]3COC(=O)[C@@H]32)c1
39: CCN(CC(=O)Nc1c(F)cccc1F)C(=O)CCc1c[nH]c2ccccc12
40: O=C(NCc1cc(C(F)(F)F)ccc1F)C1CCC(=O)N(C2CC2)C1 (configuration not stated)

Assay by compound	33	34	35	36	37	38	39	40
Rango-impB inh	1.8%	0.6%	?	?	-7.8%	-1.4%	0.4%	4.0%
GLA inh pH 4.5	3.9	-0.1	/	/	-2.5	/	4.6	/
Rango release inh	11.4%	8.7%	?	-18.8%	-11.4%	0.9%	6.9%	59.1%
miR-21 FLuc	-7.0%	-4.2%	1.8%	5.2%	-1.1%	/	0.3%	-2.4%

41: CCCCC(=O)Nc1ccc(C(=O)Nc2nnc(COC)s2)cc1
42: Cc1ccc(S(=O)(=O)N2CCOCC2)cc1NC(=O)COC(=O)CSc1ccc(Br)cc1C
43: COc1ccc(/C=N/N2C(=O)C3C4C=CC(CC4)C3C2=O)c(OC)c1 (configuration not stated)
44: CCOC(=O)NN1C(=O)c2ccccc2NC1c1ccccn1 (configuration not stated)
45: CC(C)Cn1c(N)c(C(=O)CSc2cc(Cl)ccc2Cl)c(=O)n(C)c1=O
46: O=C(N/N=C/c1ccsc1)C1CC1
47: Cc1ccc(-n2nc3c(=O)n(CC(=O)NCCCc4ccccc4)nc(C)c3c2C)cc1
48: C=CCN(c1ccccc1C(=O)NCC(=O)O)S(=O)(=O)c1ccc(C)cc1

Assay by compound	41	42	43	44	45	46	47	48
Rango-impB inh	-4.9%	1.6%	1.6%	-0.6%	/	-3.5%	4.3%	1.7%
GLA inh pH 4.5	4.0	-2.2	-3.5	-0.4	-8.0	3.6	/	-1.8
Rango release inh	12.5%	-9.7%	-2.7%	15.8%	/	42.9%	?	11.8%
miR-21 FLuc	-11.1%	-3.5%	-6.3%	0.4%	0.5%	-6.0%	0.7%	-6.6%

49: N=c1sccn1CC(=O)Nc1ccc(SC(F)F)cc1
50: OC(CCc1cccc(Cl)c1)c1cccs1 (configuration not stated)
51: Cc1cc(C)c(NC(=O)c2cccs2)c(C)c1NC(=O)c1cccs1
52: Cc1ccc(SCC(=O)N2CCN(c3ccccn3)CC2)cc1
53: O=C(NC12CC3CC(CC(C3)C1)C2)c1ccc(N2CCNCC2)c([N+](=O)[O-])c1
54: CCN(CCO)C(=S)Nc1cc(S(=O)(=O)N(C)C)ccc1C
55: O=C(NC1CCCC1)C1CC(c2ccc(F)cc2)=NO1 (configuration not stated)
56: Nc1ccn([C@H]2C[C@H](O)[C@@H](CO)O2)c(=O)n1

Assay by compound	49	50	51	52	53	54	55	56
Rango-impB inh	2.6%	-1.5%	5.1%	-2.1%	-1.1%	?	0.5%	0.2%&-3.0%
GLA inh pH 4.5	4.6	/	/	-4.7	-5.7	-14.9	-8.0	-0.6
Rango release inh	-9.6%	6.0%	-9.3%	15.9%	6.6%	2.1%	9.1%	0.0%&-15.5%
miR-21 FLuc	5.8%	-39.2%	1.4%	-20.5%	-5.5%	-0.8%	-34.0%	-0.8%

57: O=C1C(C=Nc2ccccc2O)=C(O)c2ccccc21
58: COc1ccc(C(CC(=O)N2CCCC2)c2c(OC)cc(OC)c3c(-c4ccccc4)cc(=O)oc23)cc1 (configuration not stated)
59: O=C(c1cc([N+](=O)[O-])ccc1Cl)N1c2ccccc2Sc2ccccc21
60: Cc1cc(NC(=O)CCCN2C(=O)/C(=C/c3cccs3)SC2=S)no1
61: O=C(COC(=O)Cn1nnc2ccccc21)Nc1ccccc1Br
62: O=C(NCn1ccc(=O)[nH]c1=S)c1ccccc1
63: Cc1ccc(-c2ccc(/C=N\n3cnnc3)o2)c(Br)c1
64: Cc1nc(-c2ccccc2)nc2[nH]c(=O)n(-c3ccccc3)c(=O)c12

Assay by compound	57	58	59	60	61	62	63	64
Rango-impB inh	9.6%	-2.5%	-4.0%	-1.1%	2.8%	6.6%	-0.5%	-2.1%
GLA inh pH 4.5	-7.5	-16.5	-18.4	-12.5	2.3	-1.6	/	-3.6
Rango release inh	-1.3%	-2.2%	5.4%	-23.5%	9.8%	15.7%	-14.6%	6.6%
miR-21 FLuc	-33.0%	3.8%	-0.4%	-1.7%	-5.7%	-3.4%	-7.7%	-25.8%

65: O=C(Cc1ccccc1)Nc1ccc(N2CCCCC2)cc1
66: Cc1nc2c(sc(=S)n2Cc2ccco2)c(=O)n1CC(=O)Nc1ccccc1Cl
67: CSCCC(NC(=O)c1ccco1)C(=O)OC(C)C(=O)NC(=O)NC1CCCCC1 (configuration not stated)
68: COc1cccc(C2NC(=O)NC(C)=C2C(=O)OCCSC)c1OC (configuration not stated)
69: Cn1cccc1/C=C1\Cc2ccccc2C1=O

Assay by compound	65	66	67	68	69
Rango-impB inh	-3.2%	-0.8%	2.3%	-7.1%	?
GLA inh pH 4.5	8.5	/	2.9	/	-6.3
Rango release inh	15.2%	0.6%	-10.9%	1.5%	?
miR-21 FLuc	-39.9%	0.1%	-5.0%	/	-56.4%
